Source: PubChem BioAssay
PABP polyA inh: blocks human PABP binding to poly(A) RNA; inhibition, % at 35 µM; fluorescence polarization; AID 2014; P11940; 1% of 290,000 active;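 active means 50% or more with normal probe brightness, or confirmed in later tests; inconclusive means above 50% with abnormal brightness, or retests that disagree; inactive means below 50% or failed in later tests; about a fifth of its hits are not listed in these tables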;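 further: calls also rest on retests at 20 µM and on dose response follow-up; controls were probe without protein and protein plus probe with vehicle; some compounds called inactive have numbers as strong as hits; many hits fall short of the cut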
Target sequence (P11940 whole entry, looked up): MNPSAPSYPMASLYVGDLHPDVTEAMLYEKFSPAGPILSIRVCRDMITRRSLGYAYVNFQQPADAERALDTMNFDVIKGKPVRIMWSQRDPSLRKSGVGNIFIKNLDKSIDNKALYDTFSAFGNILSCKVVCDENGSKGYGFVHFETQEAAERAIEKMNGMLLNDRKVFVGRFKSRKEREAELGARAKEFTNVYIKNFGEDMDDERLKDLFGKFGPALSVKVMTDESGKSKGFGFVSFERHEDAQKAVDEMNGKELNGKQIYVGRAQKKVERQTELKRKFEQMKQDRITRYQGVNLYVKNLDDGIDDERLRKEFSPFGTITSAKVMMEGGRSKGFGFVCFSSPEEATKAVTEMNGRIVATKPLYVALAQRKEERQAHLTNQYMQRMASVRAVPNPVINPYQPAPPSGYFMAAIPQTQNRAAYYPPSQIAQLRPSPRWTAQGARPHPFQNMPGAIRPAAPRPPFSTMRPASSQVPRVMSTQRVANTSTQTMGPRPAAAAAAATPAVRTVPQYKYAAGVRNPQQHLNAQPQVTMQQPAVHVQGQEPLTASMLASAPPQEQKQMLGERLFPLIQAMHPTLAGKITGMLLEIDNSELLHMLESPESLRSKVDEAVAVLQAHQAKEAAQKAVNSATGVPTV
Rce1 inh: inhibitors of yeast Ras-converting enzyme. Q03530. yeast membranes, quenched prenylated peptide cleavage fluorescence. calls only. 0.27% of 290,000 active. AID 2563;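 active means fall in fluorescence gain of 50% or more versus controls, with final raw signal at or below 3038400; inconclusive means same 50% fall but final raw signal above 3038400; inactive means fall in fluorescence gain under 50%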;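 further: plate controls were neutral control wells for no effect and wells lacking membranes for full effect; tested at 10 µM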
Target sequence (Q03530 whole entry, looked up): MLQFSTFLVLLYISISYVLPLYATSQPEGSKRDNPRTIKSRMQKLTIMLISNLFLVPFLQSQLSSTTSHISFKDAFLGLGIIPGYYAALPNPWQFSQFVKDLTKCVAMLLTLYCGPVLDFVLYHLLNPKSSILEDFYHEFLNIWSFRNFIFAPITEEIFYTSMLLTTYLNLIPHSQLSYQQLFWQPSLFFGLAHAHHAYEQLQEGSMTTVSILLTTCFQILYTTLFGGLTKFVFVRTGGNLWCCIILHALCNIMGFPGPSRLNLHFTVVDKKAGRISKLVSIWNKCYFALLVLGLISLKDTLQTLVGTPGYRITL
CSC inhib: cancer stem cell inhibition; cancer stem cell-like cells viability, luminescence; inhibition, % at 7.5 µM; 1.1% of 300,000 active;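 active means mean at 75% or more and at least half the replicates too; inconclusive means mean and replicates disagree; tested in HMLE shEcad cells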;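 further: 0% = median of negative and 100% = median of positive control wells; the first replicate is given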
MT1-MMP act inh: inhibitors of human MT1-MMP activation | AID 651647 | HT1080 RFP-PRO-GFP cells, GFP/RFP ratio fluorescence, overnight; percent of plate control window, DMSO zero | P50281 | 0.061% of 360,000 active | GFP/RFP ratio change, % at 20 µM;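 active means GFP/RFP ratio change of at least 30% with cell ATP level not reduced by more than half and red fluorescence within 50% of control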; further: strong numbers were not always called active
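Assay system: RFP-PRO-GFP reporter HT1080 cells; read-out basis: GFP/RFP fluorescence ratio; benchmarks: DMSO wells and RFP-L50D-GFP cells; doses: 20 µM single dose, 1% DMSO; schedule: overnight cell settling, then overnight compound exposure, 37 °C, 5% CO2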
Yeast UUG start: modulators of start codon recognition fidelity in yeast. activity score, % at 18.7 µM. S. cerevisiae UUG-firefly luciferase reporter, luminescence/redox ratio. AID 602363. 0.13% of 350,000 active;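 active means replicate mean at a twofold rise or more, about +100% in these data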;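 further: firefly luciferase made from a UUG start codon reports start codon fidelity; reporter light over untreated wells divided by growth signal over untreated wells; some hits fall short of that in this replicate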
eIF4H FP inh: inhibitors of RNA binding by human eIF4H; Q15056; inhibition, % at 35 µM; 0.94% of 290,000 active; eIF4H fluorescence polarization binding assay; AID 2012;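 active means 50% or more with normal probe brightness, or confirmed in later tests; inconclusive means above 50% with abnormal brightness, or retests that disagree; inactive means below 50% or failed in later tests; about a fifth of its hits are not listed in these tables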;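 further: calls also rest on retests at 20 µM and on dose response follow-up; 0% = protein and probe with vehicle and 100% = probe without protein; strong numbers were not always called active; many hits fall short of the cut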
HIV Env fusion: blocks HIV Env-driven cell-cell fusion; HeLa-JRFL Env/CEM21 cell fusion, luciferase; inhibition, % at 12.3 µM; 1.1% of 360,000 active; AID 651610;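 active means mean replicate inhibition score of at least 50 and every replicate individually at or above 50; inconclusive means only one of the two criteria met; inactive means mean below 50 and not all replicates reaching 50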;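 further: 0% = plate neutral controls and 100% = maraviroc near 300 nM; one replicate is shown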
eIF4H FP inh retest: also measured in eIF4H FP inh; calls as there; inhibition, %; compound at 20 µM; confirmation average;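 mean of two retest wells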
PABP polyA inh retest: recorded beside PABP polyA inh, whose call it bears; inhibition, %; compound at 20 µM; confirmation repeats;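 mean of two retest wells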
MT1-MMP act inh RFP: also measured in MT1-MMP act inh; calls as there; RFP signal change, %; measured here: RFP expression control read;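 0 = vehicle wells; hits needed this value within 50% of zero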
An asterisk follows results filed as active; i = inactive; ? = inconclusive; . = no result given; & = joins results of further samples; [ ] = remark or other dose. Not all compounds are listed; rates above refer to the full screens.

SMILES | PABP polyA inh | Rce1 inh | CSC inhib | MT1-MMP act inh | MT1-MMP act inh RFP | Yeast UUG start | eIF4H FP inh | HIV Env fusion | others
O=C(NC1=NN(c2ccccc2)CC1)Nc1ccccc1F | -4 | i | 36 | 2 | 1 | -18 | -9 | -6
O=C(NC(c1ccc(F)cc1)c1ccc2ccccc2n1)C1CCN(Cc2ccc(Oc3ccccc3)cc2)CC1 (stereo unspecified) | . | . | . | 10 | -14 | -1 | . | 20
O=C(CCC1COc2ccccc2O1)NCC1COc2ccccc2O1 (stereo unspecified) | -9 | i | -6 | 2 | 3 | 12 | -12 | .
Cc1c(NC(=O)CSc2ccc(Cl)cc2)c(=O)n(-c2ccccc2)n1C | -6 | i | -11 | 0 | 2 | . | 7 | 9
COc1cc(/C=N/N2C(=O)c3ccccc3NC2(C)c2cccc([N+](=O)[O-])c2)cc(Br)c1O (stereo unspecified) | 11 | i | -6 | 5 | -2 | -7 | -4 | .
COc1ccc(C(=O)OCC(=O)c2ccc(S(=O)(=O)N3CCCCC3)cc2)c(OC)c1 | . | . | . | 5 | -1 | -13 | . | 0
Cc1cc(C)cc(C(=O)NC(=S)Nc2cccnc2)c1 | -3 | i | -27 | 1 | 0 | -24 | -13 | -6
O=C(O)c1cccc(NC(=O)c2cc(NC(=O)c3ccccc3)cc(NC(=O)c3ccccc3)c2)c1 | 19 | . | -1 | 1 | 4 | 4 | 0 | -12
Nc1ccc(N=Nc2ccccc2)c2cccnc12 | 13 | i | 14 | 8 | -12 | -6 | -14 | -38
Cc1ccc(C(=O)N/C(=C\c2ccccc2F)c2nc(=S)[nH][nH]2)cc1 | -7 | i | 5 | 4 | 3 | . | -4 | -10
Cc1ccccc1C(=O)NNC1=NCCC1 | -6 | . | . | -7 | -1 | -18 | 6 | -5
COc1ccccc1OCC(=O)N1CCN(C(=O)c2ccco2)CC1 | -4 | i | 2 | -3 | 2 | 8 | -3 | -5

An excerpt of the results above, for reference:
SMILES | PABP polyA inh | Rce1 inh | CSC inhib | MT1-MMP act inh | MT1-MMP act inh RFP | Yeast UUG start | eIF4H FP inh | HIV Env fusion | others
O=C(NC1=NN(c2ccccc2)CC1)Nc1ccccc1F | -4 | i | 36 | 2 | 1 | -18 | -9 | -6
O=C(NC(c1ccc(F)cc1)c1ccc2ccccc2n1)C1CCN(Cc2ccc(Oc3ccccc3)cc2)CC1 (stereo unspecified) | . | . | . | 10 | -14 | -1 | . | 20

Going on with the list.
SMILES | PABP polyA inh | Rce1 inh | CSC inhib | MT1-MMP act inh | MT1-MMP act inh RFP | Yeast UUG start | eIF4H FP inh | HIV Env fusion | others
COC(=O)c1ccc2cc(F)cc(C)c2n1 | . | . | . | 0 | 2 | -4 | . | -54
CC(C)(C)c1nc2scc(-c3cccs3)c2c(=O)o1 | 0 | i | 0 | 4 | 3 | 5 | -6 | .
O=C(CC1CCCC1)NNC(=O)c1ccccc1O | . | . | . | 6 | 8 | -43 | . | -1
Nc1c(NCCC2=CCCCC2)c(=O)[nH]c(=O)n1Cc1ccccc1 | 17 | i | 14 | -23 | -2 | -7 | 24 | .
C[C@H]1CN([C@@H](C)CO)S(=O)(=O)c2ccc(-c3ccc(C#N)cc3)cc2O[C@H]1CN(C)C(=O)CN(C)C | . | . | . | 1 | 4 | -2&1&7 | . | -1[16.7 µM]
CC(=O)Cc1nnn(-c2cc(C)on2)n1 | 8 | i | 1 | . | . | . | -6 | .
Cc1cccc(Nc2cc(=O)[nH]c(=O)[nH]2)c1C | 14 | i | -1 | . | . | . | -4 | .
CN(C)/C(=N\S(=O)(=O)c1ccc(Cl)cc1)c1ccc(F)cc1 | -2 | i | -10 | -1 | 0 | 8 | -4 | 1
O=C(COC(=O)c1ccc(S(=O)(=O)N2CCOCC2)cc1)NCc1ccco1 | . | . | . | -3 | 6 | -13 | . | -26
C[C@@H](NC(=O)[C@@H]1Cc2ccccc2CN1)C(=O)NCc1ccco1 | 6 | i | 1 | -5 | -2 | . | -1 | -4
C=CCOn1c(=O)c(-c2cc3ccccc3o2)[n+]([O-])c2ccccc21 | 47* | i | -11 | -5 | 0 | -13 | 58* | . | eIF4H FP inh retest=56*;PABP polyA inh retest=75*
CCCC/C=C/C(NC(=O)CCc1ccccc1)c1ccccc1 (stereo unspecified) | -6 | i | 0 | -1 | 1 | -3 | 4 | 15
COc1ccc(NC(=O)CCNC(=O)Cn2cnc3sc4c(c3c2=O)CCCC4)c(OC)c1 | 4 | i | 4 | 0 | -1 | -14 | -3 | 8
CCC(C)(C)NC(=O)CC(c1ccc(OC)cc1)n1cccc1 (stereo unspecified) | 5 | i | 0 | 0 | 7 | -5 | -8 | .
Cc1ccc(S(=O)(=O)N2CCC(C(=O)Nc3ccccc3N3CCCCC3)CC2)cc1 | -7 | i | 8 | -2 | -8 | -14 | -14 | .
CC(=O)N1CCOCC1c1cc(C(=O)Nc2ccccc2)no1 (stereo unspecified) | . | . | . | 1 | 2 | -7 | . | 1
COc1ccc(N2CCN(C(=O)CNC(=O)Cc3ccc(Cl)cc3)CC2)cc1 | 11 | i | 2 | -4 | -11 | -2 | -2 | 39
Cc1ccc(S(=O)(=O)Nc2ccccc2C(=O)Nc2ccc(S(=O)(=O)Nc3nccc(C)n3)cc2)cc1 | 0 | i | -3 | 1 | 6 | . | -3 | -9
O=C(CN1C(=O)C2C3C=CC(C3)C2C1=O)NCCc1ccccc1 (stereo unspecified) | -5 | i | -2 | 1 | 5 | . | -11 | .
O=C(COCc1ccccc1)N[C@@H]1c2ccccc2CC[C@H]1OCc1ccccc1 | . | . | . | -3 | -5 | 3 | . | 3
S=C(NCc1ccc2c(c1)OCO2)NC1CC1 | 77 | i | -19 | -2 | 1 | . | -2 | 2 | eIF4H FP inh retest=-6;PABP polyA inh retest=-2
COc1ccc(C(=O)Nc2ccccc2-c2nnn(CC(N)=O)n2)cc1 | . | . | . | -3 | -2 | -17 | . | 12
CC1(C)CC(=O)C2=C(C1)Nc1ccccc1NC2c1ccccc1F (stereo unspecified) | 20 | i | -13 | -1 | -2 | -12 | 3 | -5
CN(C)S(=O)(=O)c1cccc(NC(=O)CNc2cccc(S(=O)(=O)N3CCCCC3)c2)c1 | . | . | . | 1 | -24 | -7 | . | 64*
COc1ccc(N2CCN(c3ncnc4c3cnn4-c3ccc(C)cc3C)CC2)cc1 | -1 | i | -12 | -5 | -21 | -29 | -6 | .
O=C(NCc1ccccc1Cl)C(=O)NCC1CCCN1S(=O)(=O)c1cccs1 (stereo unspecified) | . | i | -13 | 0 | -2 | -14 | . | -29
O=C(NC(=S)Nc1cccc(NC(=O)c2ccccc2)c1)c1cccc([N+](=O)[O-])c1 | -9 | i | . | 2 | -2 | -22 | -2 | .
ClC1(Cl)CC1CSc1ncn[nH]1 (stereo unspecified) | -1 | i | . | 3 | 2 | 3 | 6 | 3
COc1ccc(-c2noc(CCC(=O)N3CCN(c4cc(C)ccc4C)CC3)n2)cc1 | -6 | i | 18 | 4 | 5 | -11 | -8 | .
COc1ccc(/C=C/C(=O)OCC(=O)c2c[nH]c3ccccc23)cc1 | . | . | . | 0 | 0 | -15 | . | 0
CCCCOC(=O)n1c(=O)oc2ccc(S(=O)(=O)N3CCCCC3)cc21 | 1 | i | 7 | 5 | -13 | -11 | 1 | 6
COc1ccc(Cl)cc1NC(=O)NCCN1CCCCC1 | 0 | i | -5 | 3 | 2 | -19 | -2 | 10
CCCc1nc2nc(C)c(NS(=O)(=O)c3ccc(C(C)(C)C)cc3)c(=O)n2[nH]1 | 17 | . | -6 | 4 | 3 | 7 | -1 | 6
Cc1ccc(C(NC(=O)N2CCOCC2)C(Cl)Cl)cc1F (stereo unspecified) | -2 | i | -16 | -2 | -1 | . | -3 | -30
O=C(NC(=S)Nc1ccc2[nH]ncc2c1)c1ccccc1 | 4 | i | 8 | 0 | -7 | -27 | -1 | .
COC(=O)c1ccc(CSc2nc3sc(C(=O)O)c(C)c3c(=O)[nH]2)cc1 | 29 | i | 2 | . | . | . | -9 | 8
Cc1c(Cl)cccc1N1C(=O)CC(NNC(=O)c2cccnc2)C1=O (stereo unspecified) | 0 | i | -6 | 0 | 8 | -35 | 6 | 12
CCOC(=O)N1CCN(C(=O)CSc2nnc(-c3ccc(C(C)(C)C)cc3)o2)CC1 | -11 | i | -2 | 0 | -12 | -3 | 1 | ?
COCCNC(=O)C1CC(=O)N(C2CCCCC2)C1 (stereo unspecified) | 3 | i | 1 | 1 | 2 | -16 | -4 | .
Cc1cc(OCC(=O)NCc2ccccn2)c2c(C)c(C)c(=O)oc2c1 | 4 | i | -30 | 1 | -8 | -16 | -10 | 0
Cn1c(-c2ccc3c(c2)OCO3)cc(=O)c2ccccc21 | 8 | i | -15 | 4 | -1 | -2 | 2 | .
CCCCCn1c(=N)c(S(=O)(=O)c2ccc(Br)cc2)cc2c(=O)n3cccc(C)c3nc21 | 2 | i | 5 | -1 | -7 | -18 | 3 | -3
Cc1cc(C)n(-c2ccc(C(=O)Nc3nnc(C)s3)cc2)n1 | -6 | i | 14 | 0 | 0 | . | -2 | .
CCCn1c(N)c(N(CCOC)C(=O)/C=C/c2cccc(Cl)c2)c(=O)[nH]c1=O | -7 | i | -11 | 2 | 2 | . | 7 | -7
O=C(NCCCN1CCCCC1)C1(S(=O)(=O)c2ccc(Cl)cc2)CC1 | -10 | i | -10 | -1 | 4 | -18 | 0 | 18
C[n+]1ccn(CC(=O)c2cc(C(C)(C)C)c(O)c(C(C)(C)C)c2)c1 | 0 | i | -21 | 3 | -1 | -1 | -7 | -8
c1ccc(-c2cc(-c3ccccc3)[nH]n2)cc1 | 0 | i | 2 | -2 | 2 | -25 | -9 | -81
CCCc1cc(=O)[nH]c(SCC(=O)Nc2nc3ccc(OCC)cc3s2)n1 | -5 | i | 2 | 0 | 0 | . | -6 | -8
CNS(=O)(=O)c1cc(NC(=O)c2cnc(SC)n2-c2ccccc2)ccc1C | 6 | i | -9 | 0 | -3 | -9 | -6 | -42
CC(=O)NC(c1ccccc1)c1nc(-c2cccc(C(F)(F)F)c2)cs1 (stereo unspecified) | . | . | . | 1 | 1 | -17 | . | 2
COCCNC(=O)C[C@@H]1C[C@H]2c3cc(NC(=O)Nc4ccc(F)cc4)ccc3O[C@H]2[C@H](CO)O1 | . | . | . | 1 | 4 | -5 | . | -7[16.7 µM]
CC(C)c1ccc(NC2CCCN(C(=O)c3ccc(Cn4cnnn4)cc3)C2)cc1 (stereo unspecified) | 2 | i | 2 | -1 | -11 | 5 | -5 | 4
Fc1ccccc1N1CCN(CC2CC3C=CC2C3)CC1 (stereo unspecified) | 13 | i | 26 | 8 | 0 | -1 | -2 | -21
CN1C(=O)c2ccccc2C(C(=O)O)C1c1cccc(F)c1 (stereo unspecified) | 7 | i | -12 | -1 | 7 | -3 | -8 | .
O=C(Nc1ccc(OC(F)(F)F)cc1)C1CCCN(C(=O)c2ccc(Cl)cc2)C1 (stereo unspecified) | . | . | 15 | -14 | -26 | 0 | . | 32
CCCC(=O)Nc1ccc(Nc2ccccc2)cc1 | 2 | i | -10 | 3 | 1 | . | -6 | 26
O=C(Nc1nnc(S(=O)(=O)N2CCCCCC2)s1)c1ccccc1 | 8 | i | 12 | 4 | -7 | -2 | 14 | -12
COc1ccccc1N(CC(=O)Nc1ccccc1C)S(C)(=O)=O | 5 | i | -3 | 4 | 3 | . | 10 | .
COc1ccc(C(CNC(=O)c2ccc(Cl)c(NC(=O)c3cccs3)c2)N2CCCC2)cc1 (stereo unspecified) | . | i | -3 | 0 | -1 | . | . | -96
